# miR-21 FLuc = qHTS Assay for Modulators of miRNAs and/orActivators of miR-21; 340,000 tested, under 10 active; HeLa miR-21 FLuc reporter, luciferase, 48 h; Potency, µM (highest dose often 38.3 µM), without a hit: at the top dose reporter change, positive = more light; active = well fitted rising curve with a large enough effect; inconclusive = small, poorly fitted or top-dose-only effect; inactive = no such curve, though single readings can be large or run the other way;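 further: % of control where 0% means no effect; miR-21 action dims this reporter so a rising signal means less miR-21 action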
#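 HeLa miR-21-FLuc reporter line, endogenous miR-21; 2000 cells/well in DMEM/10% FBS; compound titration up to ~40uM final, 48 h, 37 degree Celsius; luciferase detection reagent, 15 min lysis, CCD luminescence.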
# Rango dissoc inh = qHTS Assay for Inhibitors of RanGTP induced Rango (Ran-regulated importin-beta cargo) - Importin beta complex dissociation | Snurportin-1 (Homo sapiens) + GTP-binding nuclear protein Ran (Homo sapiens) + Importin … | Biochemical FRET Rango-importin beta, RanGTP-induced dissociation | Potency, µM (doses to about 46.1 µM), without a hit: at the highest dose activity change, negative = inhibition | 0.071% of 340,000 active | AID 540253, 2011; active means falling FRET ratio curve, often poorly fitted, with flat reads before Ran was added; inconclusive means other falling curves, or compound fluorescence or quenching; inactive means flat or rising ratio curve;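 further: potency means the concentration at half of the fitted maximal effect; % of control where 0% means no effect; nearly all actives have a fitted effect of over 45% in size; -100% = wells without RanGTP and RCC1; the record marks most hits as doubtful in a second field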
#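 FRET read at 45 min, room temperature: inhibitors block the CFP/YFP signal rise when RanGTP (0.6 uM Ran, 2 mM GTP, 0.2 uM RCC1) frees Rango (0.1 uM) from importin beta (0.25 uM). Pre-read after 5 min compound exposure flags interference.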
# GLA inh pH 4.5 = qHTS Assay for Inhibitors of Human alpha-Galactosidase at pH 4.5; activity change, negative = inhibition, % at 105 µM; 230,000 tested, under 10 active; purified enzyme, 4-MU-alpha-Gal fluorescence, pH 4.5; Alpha-galactosidase A (Homo sapiens), P06280; AID 1467, 2008; inconclusive = small, poorly fitted or top-dose-only inhibition, or a rising curve; inactive = flat fitted curve, though single readings scatter; no compound was filed as active;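 further: 0% = full activity with enzyme and -100% = basal without enzyme; dose as in the result columns while the protocol names 77 µM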
# Rango-impB inh = qHTS Assay for Inhibitors of Rango (Ran-regulated importin-beta cargo) - Importin beta complex formation; Potency, µM (highest dose often 92.2 µM), without a hit: at the highest dose inhibition of complex formation; AID 540263, 2011; Rango CFP/YFP FRET sensor + importin beta, 45 min; Importin subunit beta-1 (Homo sapiens), Q14974; 0.031% of 340,000 active; active = rising FRET ratio curve, often small or poorly fitted; inconclusive = mostly compound fluorescence or quenching in the first reads; inactive = flat curves in all reads;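 further: potency means the concentration at half of the fitted maximal effect; 0% = DMSO wells and 100% = buffer wells lacking importin beta; nearly all actives have a fitted effect of over 15% in size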
# Target sequence (Q14974 whole entry, looked up): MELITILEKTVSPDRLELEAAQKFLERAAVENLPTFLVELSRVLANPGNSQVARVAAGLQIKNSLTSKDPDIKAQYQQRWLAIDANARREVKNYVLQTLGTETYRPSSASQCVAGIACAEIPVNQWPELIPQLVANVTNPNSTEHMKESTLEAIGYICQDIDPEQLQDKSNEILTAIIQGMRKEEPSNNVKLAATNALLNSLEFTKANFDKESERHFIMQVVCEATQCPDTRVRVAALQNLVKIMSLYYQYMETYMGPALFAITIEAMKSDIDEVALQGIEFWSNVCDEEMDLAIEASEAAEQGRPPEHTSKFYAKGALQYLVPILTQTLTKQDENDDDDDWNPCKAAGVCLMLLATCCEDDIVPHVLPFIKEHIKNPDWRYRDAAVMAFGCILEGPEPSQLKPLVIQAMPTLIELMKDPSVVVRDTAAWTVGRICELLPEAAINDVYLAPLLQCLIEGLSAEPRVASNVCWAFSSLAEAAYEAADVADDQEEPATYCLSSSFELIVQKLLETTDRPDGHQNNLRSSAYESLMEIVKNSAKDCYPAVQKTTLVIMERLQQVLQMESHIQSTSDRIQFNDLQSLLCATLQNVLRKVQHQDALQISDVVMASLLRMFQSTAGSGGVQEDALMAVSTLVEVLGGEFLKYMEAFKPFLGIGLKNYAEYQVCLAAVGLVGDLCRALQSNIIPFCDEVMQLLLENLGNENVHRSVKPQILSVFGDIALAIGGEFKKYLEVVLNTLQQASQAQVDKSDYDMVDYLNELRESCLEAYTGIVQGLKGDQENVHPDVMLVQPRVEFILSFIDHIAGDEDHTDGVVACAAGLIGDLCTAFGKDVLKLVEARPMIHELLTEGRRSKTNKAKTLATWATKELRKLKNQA
#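 FRET biosensor (snurportin 1 IBB flanked by EYFP and cerulean), 50 nM, with compound 5 min, then 0.125 microM importin beta in PBS, 1 mM DTT, 0.02% Tween-20, 0.1% BSA. CFP/YFP ratio read after 45 min at room temperature; pre-read flags interference.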
# * marks the source's active call; other numbers are inactive results; ? = inconclusive; nt = no result given; & = joins results of further samples; [ ] = remark or other dose.
miR-21 FLuc	SMILES	Rango dissoc inh	GLA inh pH 4.5	Rango-impB inh
0%	CCOC(=O)C1=C(C)NC(C)=C(C(=O)OCC)C1c1cc(N)ccc1OC(F)F	1%	-29	0.0%
nt	O=C(Cc1cccs1)NNC(=O)c1ccccc1Cl	-3%	nt	0.5%
-4%	O=C(NCCCN1CCCCC1)c1ccc2c(=O)n(CCc3ccccc3)c(=O)[nH]c2c1	35%	20	1.7%
-5%	O=[N+]([O-])c1cccc2c1ccc1ncccc12	1%	nt	-0.1%
nt	Cc1ccc(S(=O)(=O)Nc2cccc(-c3ccc4nncn4n3)c2)cc1	-10%	nt	-2.2%
-1%	COc1cc(COCC(O)CN2CCOCC2)cc(OC)c1OC (configuration not stated)	-1%	-4	3.8%
-38%	CC(C)C(=O)Nc1ccc(N2CCCC2)c(Cl)c1	-10%	3	1.3%
0%	CC1(C)Cc2c(cnn2-c2ccccc2)C(NC(=O)CCc2ccc(=O)[nH]n2)C1 (configuration not stated)	-9%	nt	3.3%
-11%	Cc1ccc2oc(C(=O)N3CCN(Cc4nccn4C)CC3)c(C)c2c1	?	nt	-0.3%
12%	COc1ccc(CNC(=O)C2CCC(CNS(=O)(=O)c3ccccc3)CC2)cc1 (configuration not stated)	15%	nt	0.9%
7%	COc1ccc(CN2CCN(Cc3csc(C(C)=O)c3)CC2CCO)c(C)c1C (configuration not stated)	-2%	-2	1.0%
0%	CCN(CC)c1nc(Oc2ccc(C(=O)OC)cc2)nc(N2CCOCC2)n1	11%	-5	0.6%
-6%	Cc1onc(-c2ccccc2Cl)c1C(=O)N1CCN(c2ccccc2)CC1	0%	5	3.0%
-55%	Cc1ccc(OCCCN2CCOCC2)c([N+](=O)[O-])c1	-13%	-17	0.6%
-5%	CC(=O)Nc1cc(-c2nn(C)c(=O)c3ccccc23)ccc1N1CCCCC1	-2%	7	3.6%
-5%	CCCCOc1ccc(-c2nnn(C(C)C(=O)OCC)n2)cc1 (configuration not stated)	-5%	-6	-3.0%
-22%	CCOC(=O)Cc1csc(NC(=O)c2ccc(Br)o2)n1	-10%	-2	-0.5%
-7%	O=C(CN1C(=O)NC2(CCCCCC2)C1=O)N1CCN(S(=O)(=O)c2ccccc2)CC1	12%	-6	1.1%
nt	CCCCCN(C(=O)CCC(=O)OCC(=O)c1c(C)cc(C)cc1C)c1c(N)n(CCCC)c(=O)[nH]c1=O	3%	nt	4.3%
-27%	COc1cccc(C2C=C(Nc3ccccc3)C(=O)N2c2ccccc2)c1 (configuration not stated)	-8%	5	-1.2%
0%	Cc1ccc(-c2nc3cc(N)ccc3o2)cc1	-3%	-9	-1.2%
14%	O=C(CC1(O)C(=O)N(Cc2cccc3ccccc23)c2ccccc21)c1cccnc1 (configuration not stated)	-11%	8	1.2%
-53%	O=C(Nc1ccccc1)N1CC=C(c2ccc(F)cc2)CC1	-2%	-2	4.1%
-4%	COc1cc(NC(=O)CN(C)S(=O)(=O)c2ccc3c(c2)CCC(=O)N3)cc(OC)c1	9%	-1	-5.3%
0%	COc1ccc(N2CCN(C(=O)c3cc4c(-c5ccc(Cl)cc5)nn(C)c4s3)CC2)cc1	4%	3	1.9%
-1%	O=C(O)C1CCCN1C(=O)OCc1ccccc1 (configuration not stated)	0%	-14	-3.3%
-46%	Cc1ccc(-c2nnc(SCC(=O)Nc3nccs3)n2N)cc1	11%	-2	3.9%
0%	Cc1ccc(C(NC(N)=O)c2ccccc2)cc1 (configuration not stated)	-3%	0	0.0%
1%	Cc1cccc2c1N(C(=O)CN1C(=O)c3ccccc3C1=O)C(C)(C)c1ssc(=S)c1-2	-10%	14	-0.4%
-4%	COc1ccc2c(c1)c(=O)c(C(=O)c1ccc(Cl)cc1)cn2CC(=O)Nc1ccc(F)cc1	-6%	-19	2.3%
25%	c1ccc(-c2c[n+]3c(n2-c2ccccc2)SCC3)cc1	0%	5	0.0%
nt	O=C(NNC(=O)c1cc2ccccc2o1)c1ccncc1	-21%	nt	-0.8%
nt	Cc1ccc(NC(=S)NNc2ccc(C(=O)O)cc2[N+](=O)[O-])cc1C	15%	nt	4.7%
nt	O=C1CCCCC1Sc1ccc(Cl)cc1[N+](=O)[O-] (configuration not stated)	7%	nt	2.9%
-23%	O=C(CCCCCN1C(=O)c2cccc3cccc(c23)C1=O)NC1CCS(=O)(=O)C1 (configuration not stated)	-1%	1	3.9%
-2%	CCOC(=O)c1c(NCCN(C)C)c2ccccc2[nH]c1=O	-3%	1	-2.3%
-4%	COCCn1c(C)c(C(=O)O)sc1=S	11%	-9	-2.4%
0%	Cc1ccc([N+](=O)[O-])c(NC2OC(CO)C(O)C2O)c1 (configuration not stated)	1%	-7	1.2%
-1%	COC(=O)C1CCN(C(=O)Cn2nnc(-c3ccccc3)n2)CC1	-12%	nt	0.3%
7%	CC(NC(=O)COC(=O)/C=C/c1ccco1)c1ccccc1 (configuration not stated)	-1%	9	-1.5%
nt	Cc1csc(NC(=O)CCCNC(=O)c2ccc(Cl)cc2)n1	-20%	nt	4.5%
-7%	COC(=O)c1ccc(NC(=O)CN2CCN(c3ccccn3)CC2)cc1	4%	-4	-0.9%
-5%	CSCc1ccc(C(=O)NC2CC(C)(C)Cc3c2cnn3-c2ccc(F)cc2)o1 (configuration not stated)	-8%	nt	-2.1%
-7%	O=[N+]([O-])/C(C(Cl)=C(Cl)Cl)=C(\Nc1ccc(F)cc1)n1cncn1	nt	1	nt
3%	O=Cc1ccc(-c2cc(Cl)ccc2Cl)[nH]1	-1%	7	1.2%
-10%	Cc1cc(-n2cnnn2)cc(C)c1S(=O)(=O)NCCOc1ccccc1	3%	nt	-0.2%
-1%	COc1ccc(N2C(=NC(=O)C3CCCCC3)SC3CS(=O)(=O)CC32)cc1 (configuration not stated)	3%	nt	-0.8%
-53%	CCOC(=O)c1ccc(N/C=C\C(=O)c2cccc(OC)c2)cc1	?	-9	-5.6%
-10%	CCCCC/C=N\NC(=O)Cc1ccc([N+](=O)[O-])cc1	-12%	-9	-4.1%
-3%	CCc1cc(=O)oc2cc(OCc3nn[nH]n3)ccc12	9%	-6	1.1%
-4%	N[C@H](CSCc1ccccc1)C(=O)Nc1ccc([N+](=O)[O-])cc1	5%	nt	-7.3%
-5%	CCOC(=O)c1c(NC(=S)NCC2CCCO2)sc(C)c1C (configuration not stated)	9%	1	-6.1%
-1%	Cn1c(=O)c2c(SCC(=O)N3CCCC3)nc(CC(C)(C)C)nc2n(C)c1=O	5%	nt	-2.1%
0%	Cc1cc(NC(=O)CCOc2ccc(F)cc2)no1	1%	-6	-0.5%
-21%	COc1ccccc1N1CCN(C(=O)NC23CC4CC(CC(C4)C2)C3)CC1	3%	-17	-3.2%
-52%	Fc1cccc(NC(=S)NCc2ccccn2)c1	11%	-1	-0.1%
4%	Cc1c(NC(=O)C2(C)CCCCC2)c(=O)n(-c2ccccc2)n1C	12%	7	-3.9%
-25%	COc1cc2c(cc1OC)[C@H](Cc1ccc(O)cc1)NCC2	-3%	3	?
2%	Nc1ccc(S(=O)(=O)N2CCCc3ccccc32)cc1	0%	-1	-0.5%
1%	O=C(CC1C(=O)NCCN1Cc1ccc(Cl)c(F)c1)NCC1CCOCC1 (configuration not stated)	-25%	4	?

# Next section:
miR-21 FLuc	SMILES	Rango dissoc inh	GLA inh pH 4.5	Rango-impB inh
-3%	CCn1c(SCC(=O)O)nc2sc3c(c2c1=O)CCC3	-2%	-7	3.0%
-1%	CS(=O)(=O)N(CC(=O)Nc1ccccc1C(=O)N1CCOCC1)c1cccc(F)c1	-9%	nt	4.5%
-3%	Cc1c(N2C(=O)CS/C2=N\N=C\c2ccc(Cl)cc2)c(=O)n(-c2ccccc2)n1C	1%	-4	2.4%
0%	O=C(NC(c1ccccc1)c1ccccc1)N1CCN(CCO)CC1	1%	-1	-1.1%
-21%	Cc1ccc(N2CC(=O)Nc3c(sc4nc(C)cc(C)c34)C2=O)cc1	-12%	-4	-1.3%
27%&22%	O=C(Nc1ccc(F)c(F)c1)c1ccc(F)c(S(=O)(=O)N2CCC3(CC2)OCCO3)c1	-3%	-6[21.1 µM]	?
nt	Cc1n[nH]c(=O)c2c(NC(=O)COC(=O)c3cc(F)cc(F)c3)oc(C)c12	0%	nt	1.0%
-1%	Cc1nc(-c2nnc(SCC(=O)Nc3cc(C(F)(F)F)cc(C(F)(F)F)c3)n2C)cs1	-11%	5	1.1%
-3%	O=C(COc1ccc2c(C(F)(F)F)cc(=O)oc2c1)NCc1cccs1	?	5	?
3%	COC(=O)C1=C(C)OC(N)=C(C#N)C1c1cc(OC)ccc1OC (configuration not stated)	-17%	11	?
3%	CCOCCCNC(=S)N1C2CCC1CC(NC(=O)Nc1ccc(C(=O)OCC)cc1)C2 (configuration not stated)	1%	-2	0.1%
-4%	CC1CCC(C(C)C)C(OCC(O)CN2CCOCC2)C1 (configuration not stated)	-6%	1	0.1%
?	Cc1ccc(NC(=O)C2=C(c3ccccc3)S(=O)(=O)CCS2(=O)=O)cc1	25%	-6	0.8%
-1%	COC(=O)C1=C(C)Nc2ncnn2C1c1ccc(OCc2ccccc2)cc1 (configuration not stated)	5%	5	-1.7%
-1%	COc1ccc(OC)c(C(=O)N2CCC(CCC(=O)NC3CC3)CC2)c1	2%	nt	-1.4%
nt	Cc1ccc(Cn2c(C(C)Nc3nc(-c4ccc(F)cc4)cs3)nc3cc(C(F)(F)F)ccc32)cc1 (configuration not stated)	-20%	nt	-2.1%
1%	CC(CN1CCOCC1)OC(=O)c1ccc(C(C)(C)C)cc1 (configuration not stated)	-22%	nt	-0.3%
-3%	Cc1ccc(S(=O)(=O)n2nc(OC(=O)C3CCCCC3)cc2N)cc1	3%	-8	1.8%
10%	CCO[C@@H]1OC(C(=O)N2CCCCCCC2)=C[C@H](C2CCCCC2)[C@H]1CCCO	-1%	-5	0.5%
6%	Cc1ccc(CC2C(=O)N(c3cc(C)ccc3C)C(=O)C2C)cc1 (configuration not stated)	-21%	nt	-0.7%
-46%	CCCc1cc(C(=O)NC2CCCC2)no1	6%	7	-1.1%

# Of the compounds above, 11 contain a Cl atom:
miR-21 FLuc	SMILES	Rango dissoc inh	GLA inh pH 4.5	Rango-impB inh
nt	O=C(Cc1cccs1)NNC(=O)c1ccccc1Cl	-3%	nt	0.5%
-38%	CC(C)C(=O)Nc1ccc(N2CCCC2)c(Cl)c1	-10%	3	1.3%
-6%	Cc1onc(-c2ccccc2Cl)c1C(=O)N1CCN(c2ccccc2)CC1	0%	5	3.0%
0%	COc1ccc(N2CCN(C(=O)c3cc4c(-c5ccc(Cl)cc5)nn(C)c4s3)CC2)cc1	4%	3	1.9%
-4%	COc1ccc2c(c1)c(=O)c(C(=O)c1ccc(Cl)cc1)cn2CC(=O)Nc1ccc(F)cc1	-6%	-19	2.3%
nt	O=C1CCCCC1Sc1ccc(Cl)cc1[N+](=O)[O-] (configuration not stated)	7%	nt	2.9%
nt	Cc1csc(NC(=O)CCCNC(=O)c2ccc(Cl)cc2)n1	-20%	nt	4.5%
-7%	O=[N+]([O-])/C(C(Cl)=C(Cl)Cl)=C(\Nc1ccc(F)cc1)n1cncn1	nt	1	nt
3%	O=Cc1ccc(-c2cc(Cl)ccc2Cl)[nH]1	-1%	7	1.2%
1%	O=C(CC1C(=O)NCCN1Cc1ccc(Cl)c(F)c1)NCC1CCOCC1 (configuration not stated)	-25%	4	?
-3%	Cc1c(N2C(=O)CS/C2=N\N=C\c2ccc(Cl)cc2)c(=O)n(-c2ccccc2)n1C	1%	-4	2.4%

# An excerpt; count on the stated rates, not on these rows.
